Screening results as filed in PubChem.
EPAC2 antag = human EPAC2 antagonism, validation; EPAC2 Rap1B BODIPY-GDP exchange, fluorescence; AID 1645886; Potency, µM (top dose mostly 112 µM), for inactives: top-dose activity, negative = inhibition, hits mostly inhibitors; 16,000 compounds, 1.7% hits; Q8WZA2; active = well fitted inhibition curve with a large enough effect; inconclusive = small, poorly fitted or top-dose-only effect; inactive = no such curve, though single readings can be large or run the other way;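 also: 100% = activation by cAMP agonist control; nearly all actives have a fitted effect of over 40% in size; the record reuses the description of the EPAC1 agonist screen; inactives centre near -10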
Target sequence (Q8WZA2 whole entry, looked up): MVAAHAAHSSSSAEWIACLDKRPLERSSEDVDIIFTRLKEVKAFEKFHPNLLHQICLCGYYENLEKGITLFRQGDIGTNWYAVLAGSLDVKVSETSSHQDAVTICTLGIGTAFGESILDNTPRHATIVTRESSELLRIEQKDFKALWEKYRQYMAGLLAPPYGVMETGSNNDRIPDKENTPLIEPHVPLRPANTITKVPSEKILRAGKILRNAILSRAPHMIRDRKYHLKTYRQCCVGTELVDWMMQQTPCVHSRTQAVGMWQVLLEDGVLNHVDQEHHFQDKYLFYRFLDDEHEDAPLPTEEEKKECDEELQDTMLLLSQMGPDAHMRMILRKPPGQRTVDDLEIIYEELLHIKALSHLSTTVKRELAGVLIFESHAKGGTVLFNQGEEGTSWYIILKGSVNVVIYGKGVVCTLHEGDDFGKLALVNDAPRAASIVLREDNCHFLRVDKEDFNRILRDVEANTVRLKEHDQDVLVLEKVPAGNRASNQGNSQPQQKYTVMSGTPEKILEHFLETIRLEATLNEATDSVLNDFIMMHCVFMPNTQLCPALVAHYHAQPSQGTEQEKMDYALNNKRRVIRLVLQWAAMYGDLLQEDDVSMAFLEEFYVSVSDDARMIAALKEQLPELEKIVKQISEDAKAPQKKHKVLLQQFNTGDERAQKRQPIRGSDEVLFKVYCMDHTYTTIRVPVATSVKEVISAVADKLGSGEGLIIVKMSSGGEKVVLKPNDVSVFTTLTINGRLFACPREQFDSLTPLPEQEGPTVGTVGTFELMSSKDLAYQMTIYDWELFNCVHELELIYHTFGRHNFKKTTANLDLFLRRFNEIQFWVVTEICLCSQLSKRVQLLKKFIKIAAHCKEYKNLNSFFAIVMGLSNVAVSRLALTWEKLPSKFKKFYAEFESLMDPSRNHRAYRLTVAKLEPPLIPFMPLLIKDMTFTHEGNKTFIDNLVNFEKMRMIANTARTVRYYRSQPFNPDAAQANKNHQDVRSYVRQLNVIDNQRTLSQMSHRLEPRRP
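Normalized against a 6.5 mM cAMP agonist control, compounds were tested on 100 nM EPAC2 exchanging Rap1B-bound BODIPY-GDP (250 nM) for 50 uM GDP. Fluorescence drop (ex 480, em 540 nm) was tracked at room temperature over 30 min at 5-min intervals.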
The depositor's hits bear a star; ? = inconclusive; & = joins results of further samples; [ ] = remark or other dose. Potency is read from the fitted curve at half-maximal effect.

SMILES	EPAC2 antag
CC(=O)N[C@@H]1C(O[C@H]2O[C@H](C(=O)O)C(O)[C@H](O)[C@H]2O)[C@H](O)[C@@H](CO)O[C@H]1O[C@@H]1C(C(=O)O)O[C@@H](O[C@H]2[C@H](O)[C@@H](CO)OC(O)[C@@H]2NC(C)=O)[C@H](O)[C@H]1O (stereo partly specified)	1%
O=c1c(-c2cccs2)nc2cncnc2n1-c1ccccc1	-41%
Fc1ccc([C@@H]2CCNC[C@H]2COc2ccc3c(c2)OCO3)cc1	-21%&3%
Nc1nc(Cl)nc2c1ncn2[C@@H]1O[C@H](CO)[C@@H](O)[C@H]1O	0%&-2%&13%
CCCCC[C@H](O)CC(=O)CCc1ccc(O)c(OC)c1	-28%[151 µM]
COc1cccc(C(=O)N2CCCC(c3nc(SCCN4CCOCC4)ncc3C)C2)c1 (stereo unspecified)	?
COc1ccc(-n2c(=O)cnc3cnc(N(C)C)nc32)cc1	-5%
COc1cc(C)c2c(=O)cc(-c3ccccc3)oc2c1	?
COc1cccc(-c2nc(NCc3ccccc3OC)c3ccccc3n2)c1	-23%
CC(=O)Oc1ccc2c(c1)CCC1C2CC[C@]2(C)C(=O)CCC12 (stereo partly specified)	-11%
O=c1cc(-c2ccccc2)oc2ccccc12	?
NC(=O)C1CCCN(Cc2ccc3c(c2)CN(Cc2cn[nH]c2-c2ccc(F)cc2)CCO3)C1 (stereo unspecified)	8%
COc1cccc(N2[C@@H](CC(=O)O)c3ccccc3S2(=O)=O)c1	-17%
NC(=O)[C@@H]1CCCN1C(=O)[C@H](Cc1cnc[nH]1)NC(=O)[C@@H]1CCC(=O)N1	-6%
O=c1c(-c2ccc(F)cc2)nc2cnc(Oc3ccccc3)nc2n1Cc1cccs1	0%
CC(C)C[C@H](NC(=O)CNC(=O)[C@H](Cc1ccc(O)cc1)NC(=O)[C@H](CO)NC(=O)[C@H](Cc1c[nH]c2ccccc12)NC(=O)[C@H](Cc1cnc[nH]1)NC(=O)[C@@H]1CCC(=O)N1)C(=O)N[C@@H](CCCN=C(N)N)C(=O)N1CCC[C@H]1C(=O)NCC(N)=O (stereo in doubt)	14%
O=C(O)C1CCCN(CCC=C(c2ccccc2)c2ccccc2)C1 (stereo unspecified)	?
CN(C)c1ccc(-c2nc(N(C)C)c3ccccc3n2)cc1	-28%
COc1ccccc1N1CCN(c2nc(CNC(=O)c3sc(C)nc3C)nc3ccccc23)CC1	-8%
COc1cc(O)c(C(C)=O)c(OC)c1	-10%
O=C(O)C(O)C(O)(Cc1ccc(O)cc1)C(=O)O (stereo unspecified)	18%
COC(=O)[C@@H]1CCCN1Cc1ccc2c(c1)CN(Cc1cccn1-c1ncccn1)CCO2	-14%
COCCn1c(=O)c(-c2ccccc2)nc2cnc(Nc3ccccc3)nc21	-15%
COC(=O)[C@@H](N)CSC/C=C(\C)CC/C=C(\C)CCC=C(C)C	-38%
COCC(=O)N1CCC2(CC1)CCN(C(=O)Nc1ccc(OC)cc1)CC2	-15%

2 successive entries from above:
SMILES	EPAC2 antag
CC(=O)N[C@@H]1C(O[C@H]2O[C@H](C(=O)O)C(O)[C@H](O)[C@H]2O)[C@H](O)[C@@H](CO)O[C@H]1O[C@@H]1C(C(=O)O)O[C@@H](O[C@H]2[C@H](O)[C@@H](CO)OC(O)[C@@H]2NC(C)=O)[C@H](O)[C@H]1O (stereo partly specified)	1%
O=c1c(-c2cccs2)nc2cncnc2n1-c1ccccc1	-41%

Sorted by SMILES length (low to high): some entries from above.
SMILES	EPAC2 antag
O=C(O)C(O)C(O)(Cc1ccc(O)cc1)C(=O)O (stereo unspecified)	18%
O=c1c(-c2cccs2)nc2cncnc2n1-c1ccccc1	-41%
CN(C)c1ccc(-c2nc(N(C)C)c3ccccc3n2)cc1	-28%

Given as a markdown table: part of the list above.
| structure | EPAC2 antag |
| --- | --- |
| CC(=O)Oc1ccc2c(c1)CCC1C2CC[C@]2(C)C(=O)CCC12 (stereo partly specified) | -11% |
| O=c1cc(-c2ccccc2)oc2ccccc12 | ? |
| NC(=O)C1CCCN(Cc2ccc3c(c2)CN(Cc2cn[nH]c2-c2ccc(F)cc2)CCO3)C1 (stereo unspecified) | 8% |
| COc1cccc(N2[C@@H](CC(=O)O)c3ccccc3S2(=O)=O)c1 | -17% |
| NC(=O)[C@@H]1CCCN1C(=O)[C@H](Cc1cnc[nH]1)NC(=O)[C@@H]1CCC(=O)N1 | -6% |
| O=c1c(-c2ccc(F)cc2)nc2cnc(Oc3ccccc3)nc2n1Cc1cccs1 | 0% |
| CC(C)C[C@H](NC(=O)CNC(=O)[C@H](Cc1ccc(O)cc1)NC(=O)[C@H](CO)NC(=O)[C@H](Cc1c[nH]c2ccccc12)NC(=O)[C@H](Cc1cnc[nH]1)NC(=O)[C@@H]1CCC(=O)N1)C(=O)N[C@@H](CCCN=C(N)N)C(=O)N1CCC[C@H]1C(=O)NCC(N)=O (stereo in doubt) | 14% |

The listing continues.
SMILES	EPAC2 antag
CN1CCN(CCCN2c3ccccc3Sc3ccccc32)CC1	3%
COc1cc(CN2C(=O)CC[C@@H]3CN(Cc4ccccn4)CC[C@@H]32)cc(OC)c1OC	-3%
Cc1oc(-c2ccccc2NC(=O)C2CCC2)nc1CNC(=O)c1c(F)ccc(F)c1F	-7%
CN1CCN(CCC=C2c3ccccc3Sc3ccc(S(=O)(=O)N(C)C)cc32)CC1	-4%&-17%
COc1ncc2nc(-c3ccc(Cl)cc3)c(=O)n(C)c2n1	9%
O=C(c1csnn1)N1CCC2(CC1)CCN(c1cccc(-c3ccccc3)c1)CC2	-17%
COc1ccc2[nH]cc(CCNc3ncncc3-c3ccccc3OC)c2c1	?
N#CCCn1c(=O)c(-c2ccccc2)nc2cnc(N3CCNCC3)nc21	-12%
O=S(=O)(/C=C/c1ccccc1)N1CCC(n2c(C3CCCO3)nc3cccnc32)CC1 (stereo unspecified)	-6%
CCNc1ncc2nc(-c3cc(F)cc(F)c3)c(=O)n(CCOC)c2n1	9%
O=C(Cc1ccccc1)NO	-4%
CCc1nc2cc(C(=O)N(C)CC3CCCN(C)C3)cc(NC(=O)c3ccccc3OC)c2n1C (stereo unspecified)	-19%
O=C1CCC[C@@H]2C[C@@]3(C[C@@H]4CCN1[C@H]24)Nc1ccccc1NC3=NC1CCCCC1	-1%
O=C(NCCc1ccccc1)[C@@H]1CC=C[C@@H]2CCN(Cc3ccccc3)C(=O)[C@@H]21	-12%
COc1ccccc1CN1CCC2(CC1)CCN(C(C)=O)CC2	-24%
NC(=O)c1ccccc1	-8%
CC(C)Cc1ccc(CC(=O)O)cc1	-7%
CN(C)c1ncc2nc(-c3ccc(F)cc3)c(=O)n(C[C@H]3CCCO3)c2n1	-2%
NCCCC(N)CC(=O)NCC1NC(=O)C(CO)NC(=O)C(N)CNC(=O)C(C2CCN=C(N)N2)NC(=O)/C(=C\NC(N)=O)NC1=O (stereo unspecified)	-5%
Cc1ccc(CNc2nc(CN3CCSCC3)nc3ccccc23)o1	-22%
C[C@]12CC[C@@H]3c4ccc(OC(=O)c5ccccc5)cc4CC[C@H]3[C@@H]1CC[C@@H]2O	-36%
CN(C)CCCN1c2ccccc2Sc2ccc(Cl)cc21	-24%&5%&-11%
COCC(=O)N1CCC[C@@]2(CCN(Cc3nccs3)C2)C1	-14%
Cc1cccc(C)c1NC(=O)CC12CCCN1CCC2	10%
Cc1cc(C(=O)NCC2CCC3(CCN(Cc4cc(F)ccc4F)CC3)O2)n(C)n1 (stereo unspecified)	1%
SMILES	EPAC2 antag
CN1CCN(c2ncnc3ccc(-c4ccccc4Cl)cc23)CC1	?
CCCC[C@H]1COCCS(=O)(=O)N1Cc1cccc(F)c1	?
NCCC[C@H](N)CC(=O)N[C@H]1CNC(=O)[C@H]([C@H]2C[C@H](O)NC(N)=N2)NC(=O)/C(=C/NC(N)=O)NC(=O)[C@H](CO)NC(=O)[C@H](CO)NC1=O	-6%
CC1(C)C2CC[C@@]1(C)C(=O)C2	-13%
NCCCCNS(=O)(=O)c1ccc2c(Cl)cccc2c1	-21%
CC(=O)OCC(=O)[C@@]1(O)[C@H](C)C[C@H]2[C@@H]3CCC4=CC(=O)C=C[C@]4(C)[C@@]3(F)[C@@H](O)C[C@@]21C	51%[activator]
COc1ccc(-c2ccc(C(=O)N(C)Cc3csc(C)n3)c(N3CCC(N4CCc5ccccc5C4)CC3)n2)cc1	5%
N#CCCn1c(=O)c(-c2cccs2)nc2cnc(N3CCOCC3)nc21	29%
O=C1CCN(Cc2ccc(-c3ccccc3)cc2)CCN1Cc1ccccn1	-9%
CCc1c(C)c2ccccc2[nH]c1=O	11%
O=C(O)CCCc1ccccc1	0%
C=C(CO)C1Cc2c(ccc3c(=O)c4c(oc23)COc2cc(OC)c(OC)cc2-4)O1 (stereo unspecified)	11%
CC(C)N(CCC(=O)c1ccc2ccccc2c1)Cc1ccccc1	?
Cc1cccc(CNc2cc(-c3ccc(C(=O)N(C)C)cc3)ncn2)c1	-7%
N#CCCn1c(=O)c(CCc2ccccc2)nc2cnc(Nc3ccccc3)nc21	-7%
COc1ccccc1CNc1ncnc2ccc(-c3ccccc3OC)cc12	-19%
COc1cc(CCNC(C)=O)c(C(=O)/C=C/c2cccc(OC)c2OC)cc1OC	0%
CN(C)c1ccc(/C=C2/C(=O)Nc3ccccc32)cc1	?
COc1cc(OC)c(C(C)=O)c(O)c1C	-9%
Cc1cccc(CNc2ncncc2-c2ccc(C(=O)N(C)C)cc2)c1	-9%
O/N=C(/C[n+]1ccsc1)c1ccc(I)cc1	11%
CC1C(=O)CCC2[C@]1(C)CCC1[C@]2(C)CC[C@@]2(C)C3CC(C)(C)CC[C@]3(C)CC[C@@]12C (stereo partly specified)	-9%
COc1ccc(/C=C/c2ccccn2)cc1	-5%
CN(C)C(=O)c1ccc(-c2cc(NCc3cccnc3)ncn2)cc1	-14%
CN1C(C(=O)Nc2ccccn2)C(=O)c2sc(Cl)cc2S1(=O)=O (stereo unspecified)	-10%
SMILES	EPAC2 antag
N#CCCn1c(=O)cnc2cnc(N3CCOCC3)nc21	-12%
CN(C)Cc1ccccc1-c1nccc(NCc2cccs2)n1	-12%
CN(C)Cc1ccccc1-c1ccc2ncnc(NC3CC3)c2c1	-26%
CC[C@H](NC(=O)c1c(C)c(-c2ccccc2)nc2ccccc12)c1ccccc1	?
COc1ncc2nc(C)c(=O)n(C3CC3)c2n1	-18%
CN(C)c1ncc2nc(-c3cccs3)c(=O)n(C[C@H]3CCCO3)c2n1	36%
COc1cc(N)c(Cl)cc1C(=O)NC1CCN(Cc2ccccc2)CC1	-15%
O=c1[nH]c2cc(C(F)(F)F)ccc2n1-c1cc(C(F)(F)F)ccc1O	?
CCCCc1c(C)[nH]c2c(OC)cccc2c1=S	-21%
Cc1ccccc1CN1Cc2cccc3c2[C@H](C=CC3)CC1=O	?
CC1=C(C(=O)OCc2ccccc2)N2C(=O)[C@@H](NC(=O)COc3ccccc3)[C@H]2SC1	?
Cc1ccccc1-c1cncnc1NC1CCNCC1	-5%
CCNc1ncc2ncc(=O)n(Cc3ccc(F)cc3)c2n1	-35%
O=C(c1ccc(F)c(F)c1)N1CCOc2ccc(CN3CCN(CCO)CC3)cc2C1	-15%
COC(=O)[C@@H]1C[C@H](NC(=O)c2ccccc2C(F)(F)F)CN1Cc1cccc(O)c1	-9%
CCNc1ncc2nc(-c3cc(F)cc(F)c3)c(=O)n(-c3ccc(OC)cc3)c2n1	-4%
CC(C)(C)c1cc(/C=C(\C#N)C(N)=S)cc(C(C)(C)C)c1O	?
Cn1cccc1C(=O)N1CCC2(CCCN(c3ccncc3)C2)CC1	-29%
COc1ccc(NC(=O)N2CC3(CCN(C(=O)c4csnn4)CC3)C2)cc1	-20%
c1cc2c3c(c1)CCC[N+]3(C1CCCCC1)CCC2	-34%
Cc1ccc2[nH]c(C(=O)N3CCc4c(cnc(C)c4CNC(=O)c4ccccc4F)C3)cc2c1	-8%
C=C1C2CC[C@@]3(C)C(c4ccoc4)OC(=O)C[C@@]13OC1CC(OC(C)=O)C(C)(C)C(CC(=O)OC)[C@@]12C (stereo partly specified)	?
Cc1nc2n(c(=O)c1CCN1CCC(c3noc4cc(F)ccc34)CC1)CCC[C@H]2O	29%
Nc1nc(Nc2ccccc2)nc2c1ncn2[C@@H]1O[C@@H](CO)[C@H](O)[C@H]1O	-32%
Cc1cnc(CNc2nc(-c3cccnc3)nc3ccccc23)cn1	-10%

Not all compounds are listed, so the mix of outcomes need not match the whole.
